# KCNQ2 block = KCNQ2 potassium channel inhibitors, primary screen, cell-based, CHO-K1, FluxOR thallium flux, B-score (AID 2156) | Potassium voltage-gated channel subfamily KQT member 2 (Rattus norvegicus), O88943 | 20 min; stronger effect = lower value; only compounds with negative scores are shown here; some inactives read as strong as hits | B-score at 10 µM | actives 1.1% (n = 310,000);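 active means fluorescence ratio B-score at most minus 3 library SDs, with starting brightness B-score within 2 library SDs, cut at about -5.5 in these data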
# Target sequence (O88943 whole entry, looked up): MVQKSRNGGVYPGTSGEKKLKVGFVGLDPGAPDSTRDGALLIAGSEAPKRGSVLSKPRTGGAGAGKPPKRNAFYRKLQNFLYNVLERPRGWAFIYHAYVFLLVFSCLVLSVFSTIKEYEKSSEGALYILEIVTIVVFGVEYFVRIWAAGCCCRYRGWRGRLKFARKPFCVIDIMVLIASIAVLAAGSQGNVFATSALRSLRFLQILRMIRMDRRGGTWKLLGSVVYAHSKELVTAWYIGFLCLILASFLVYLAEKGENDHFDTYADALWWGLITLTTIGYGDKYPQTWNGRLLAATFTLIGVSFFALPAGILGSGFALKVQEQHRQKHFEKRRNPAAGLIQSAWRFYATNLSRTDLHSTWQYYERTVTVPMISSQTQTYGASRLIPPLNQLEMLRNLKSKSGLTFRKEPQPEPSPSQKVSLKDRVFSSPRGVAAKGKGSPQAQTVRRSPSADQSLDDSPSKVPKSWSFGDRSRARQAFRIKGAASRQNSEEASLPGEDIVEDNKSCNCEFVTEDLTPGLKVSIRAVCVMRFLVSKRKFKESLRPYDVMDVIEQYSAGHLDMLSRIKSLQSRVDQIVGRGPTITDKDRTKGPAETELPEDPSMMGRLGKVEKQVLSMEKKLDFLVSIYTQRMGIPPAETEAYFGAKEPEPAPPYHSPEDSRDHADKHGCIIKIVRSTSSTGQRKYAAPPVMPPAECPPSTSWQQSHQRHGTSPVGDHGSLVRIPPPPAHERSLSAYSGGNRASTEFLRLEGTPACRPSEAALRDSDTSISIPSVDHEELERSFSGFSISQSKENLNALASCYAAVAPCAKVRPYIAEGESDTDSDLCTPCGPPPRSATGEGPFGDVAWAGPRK
# KCNQ2 block baseline = second read-out of KCNQ2 block, no call of its own (marks repeat the call); B-score; measured here: initial fluorescence intensity artifact check;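 brightness before thallium and not channel activity; 0 = typical well and far values either way flag optical interference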
# * = called active by the depositor; i = inactive. These rows are one share of the data; count on the stated rates, not on these rows.
entry	KCNQ2 block	KCNQ2 block baseline	Structure
1	i	1.4	Cc1ccc(-c2nnn(CC(=O)NCC3CC3)n2)o1
2	i	-1.2	CCNS(=O)(=O)c1ccc(OC)c(C(=O)NC2CCCCC2)c1
3	i	1.3	N#CCCSc1ncnc2c1oc1ccccc12
4	i	1	CC(=O)Nc1ccc(NS(=O)(=O)c2cccc3ccccc23)cc1
5	i	0.02	Cc1cccc(Cc2cnc(NC(=O)C3=NCCN3)s2)c1
6	i	-2.6	COc1ccc(C(=O)NNC2=CC(=O)CC(C)(C)C2)cc1OC
7	i	-2.1	COC(=O)c1ccc(SC2CCCCC2)c([N+](=O)[O-])c1
8	i	0.35	CCOC(=O)C1CCN(C(=O)CSc2ccc(Br)cc2)CC1
9	i	0.19	Fc1cccc(Cl)c1Cn1nnc2c(NCc3ccncc3)ncnc21
10	i	-0.62	COc1ccc(-c2nnc(N(C)C(=O)c3ccco3)s2)cc1OC
11	i	-0.33	COc1ccc(/C=C(/CC(=O)Nc2ccc(C)cc2)c2nc3ccccc3s2)cc1
12	i	-1.5	Cc1ccc(C)c(N2CCN(C(=O)C3CCCCN3S(=O)(=O)c3ccc(F)cc3)CC2)c1 (configuration not stated)
13	i	0.08	COc1ccc(CCNC(=S)N2CCC(C(=O)c3ccc(F)cc3)CC2)cc1OC
14	i	0.4	CC(C)(C)CC(=O)Nc1nnc(SCC(=O)NC2CCCCC2)s1
15	i	2	Cc1c(Cl)cccc1N(CC(=O)NC(C)c1ccccc1)S(C)(=O)=O (configuration not stated)
16	i	1.8	Cn1cc(C(=O)NCCN2CCN(c3cccc(Cl)c3)CC2)c2c3ccccc3n(C)c2c1=O
17	i	-0.99	CC(C)COc1ccc(CN=C(N)N=C(N)N)cc1Cl
18	i	-3.1	CC(C)c1ccc2c(c1)C1(NN=C(c3ccccc3)S1)C(=O)N2 (configuration not stated)
19	i	-3	O=C(O)C1(P(=O)(c2ccc(Cl)cc2)c2ccc(Cl)cc2)CCCC1
20	i	0.17	C=CCSc1nc2c(c(=O)[nH]c(=O)n2C)n1Cc1ccc(C)cc1
21	i	-0.52	CC(O)c1cccc(NC(=O)C2CCCCC2)c1 (configuration not stated)
22	i	-0.86	Cc1ccc(NC(=S)N(CCCN2CCCC2)Cc2cccn2Cc2ccc(Cl)cc2)cc1C
23	i	-0.59	Cc1cc(/C=C(\C#N)C(=O)OCC(=O)NC(=O)NC(C)(C)C)c(C)n1CCC(C)C
24	i	-0.06	N/C(=N\OC(=O)COc1ccc2ccccc2c1Br)c1ccccn1
25	i	5.4	CC(=O)Nc1cccc(C2=CC(c3ccco3)n3ncnc3N2)c1 (configuration not stated)
26	i	1.7	Cc1cccc(Oc2nc(-c3ccccc3)cc(C)c2S(C)(=O)=O)c1C
27	i	-0.15	CCOC(=O)Cc1ncccc1C(=O)Nc1ccc(OC(F)(F)F)cc1
28	i	0.4	COc1cc2ncc(S(=O)(=O)c3ccccc3)c(N3CCC4(CC3)OCCO4)c2cc1OC
29	i	0.01	COc1ccc(-c2nn(-c3ccccc3)cc2/C=N/Nc2ccccn2)cc1
30	i	0.01	C1CNCCNCCCNCCNC1
31	i	-0.54	CCc1cc(Br)ccc1NC(=S)NCCc1ccccc1
32	i	-2.7	COc1cc(C2CC(=O)N(CC(=O)NCC3CCCO3)c3ccccc3S2)cc(OC)c1OC (configuration not stated)
33	i	0.03	Cn1c(=O)n(C)c2cc(NC(=O)CSc3nc4ccccc4c(=O)[nH]3)ccc21
34	i	3	CCCC(C(=O)NC(C)(C)C)N(C(=O)c1snc(C(N)=O)c1N)c1ccc2c(c1)OCCO2 (configuration not stated)
35	i	0.63	O=C(CC(c1ccccc1)c1ccccc1O)NCCc1ccccc1 (configuration not stated)
36	i	0.67	O=S(=O)(NCc1c(Cl)cccc1Oc1ccccc1)c1ccccc1
37	i	1.6	COc1ccc(C2=NCCn3c2c2ccc(C(F)(F)F)cc2[n+]3[O-])cc1
38	i	3.4	Cc1ccc(NC(=O)c2ccc3c(c2)OCO3)cc1Cl
39	i	0.11	O=C(NN1C(=O)c2ccccc2NC1c1ccc([N+](=O)[O-])o1)c1ccc(Br)cc1 (configuration not stated)
40	i	-1.5	CCCC1OC23CCCCC2C(C#N)(C#N)C1(C#N)C(=N)O3 (configuration not stated)
41	i	-0.73	Cn1cc(/C=C(\NC(=O)c2ccccc2)C(=O)N2CCOCC2)c2ccccc21
42	i	0.61	O=S(=O)(Nc1c(F)cccc1F)c1ccc(Cl)nc1
43	i	0.23	Cc1nn(C)c(Cl)c1CN1CCCC(CCC(=O)NCc2ccccc2F)C1 (configuration not stated)
44	i	-1.4	O=c1c2ccccc2nc2ccc(NCc3cccs3)nn12
45	i	-1.8	O=C(COC(=O)c1ccc(-c2nnc(-c3ccccc3)o2)cc1)c1ccccc1
46	i	-0.42	COc1ccc(NC(=O)C2CCCN2S(=O)(=O)c2ccc3c(c2)CC(C)N3C(C)=O)cc1OC (configuration not stated)
47	i	0.48	COc1cccc2sc(/N=C/N(C)C)nc12
48	i	0.2	CCC(C)NC(=O)C1CCN(S(=O)(=O)c2ccc3[nH]c(=O)ccc3c2)CC1 (configuration not stated)
49	i	0.2	OCc1ccccc1OCCOc1ccc(Cl)c2cccnc12
50	i	1	CCCCC(=O)NNC(=S)NC(=O)CCC
51	i	0.03	CC(C)CCNC(=O)C(=O)Nc1ccccc1
52	i	0.58	COc1ccc(S(=O)(=O)N2CCCN(CC(=O)C(C)(C)C)CC2)cc1
53	i	0.96	OCC[C@@H]1C[C@@H](O)[C@H](O)[C@]2(CCc3ccccc3O2)O1
54	i	-1.1	COc1ccc(S(=O)(=O)N2CCN(C3CCN(Cc4ccccc4)CC3)CC2)cc1
55	i	1.1	O=C(CNS(=O)(=O)c1ccccc1)N/N=C\c1ccc(Cl)cc1
56	i	2.2	Cc1cc(Nc2ccc(Cl)cc2)nc(NCc2ccccc2)n1
57	i	-3.4	COc1ccccc1NC(=O)C1CCCN(S(=O)(=O)c2ccc3[nH]c(=O)ccc3c2)C1 (configuration not stated)
58	i	-0.72	Cc1nc2ccc(C(=O)N/N=C/c3cc([N+](=O)[O-])ccc3O)cc2[nH]1
59	i	0.32	CC1CCN(C(=O)c2ccc(COc3ccccc3Cl)o2)CC1
60	i	-0.68	Cc1ccc(S(=O)(=O)N2CCN(C(=O)c3ccc([N+](=O)[O-])cc3)C2)cc1

# Continuation:
entry	KCNQ2 block	KCNQ2 block baseline	Structure
61	i	-0.23	Cc1cc2c(cc1C)N(C(=O)CSc1nncn1C)C(C)(C)c1ssc(=S)c1-2
62	i	0.34	CCSc1nnc(-c2ccccc2NC(=O)CC)c(=O)[nH]1
63	i	0.64	Cc1cc(-c2ccc(S(=O)(=O)N(C)Cc3ccccc3)cc2)on1
64	i	1.1	Cc1ccc(S(=O)(=O)NCC(=O)N(CC2CCCO2)C(C(=O)NC2CCCCC2)C(C)C)cc1 (configuration not stated)
65	i	0.09	CCCNC(=O)CCn1c(-c2ccc(C)cc2)cc(C(=O)OCC)c1C
66	i	0.01	O=C(NC1CCCN(c2ccc(C(F)(F)F)cn2)C1)c1ccnc(Cl)c1 (configuration not stated)
67	i	17	COC(=O)Cn1c(C)c(/C=C/c2cc[n+](C)cc2)c2ccccc21
68	i	-1.3	Cc1ccc2[nH]c(=O)c(CN(c3cccc(C)c3C)S(=O)(=O)c3ccccc3)cc2c1
69	i	-0.87	Cc1cccc(N2C(=O)c3cccc4c(N5CCCCC5)c([N+](=O)[O-])cc(c34)C2=O)c1C
70	-9*	0.4*	O=C(Nc1ccccc1N1CCCCC1)c1cc(S(=O)(=O)N2CCOCC2)ccc1Cl
71	i	0.98	O=C(NC1=C(Nc2ccc(F)cc2)C(=O)c2ccccc2C1=O)c1ccc(Cl)cc1
72	i	0.61	CCOP(=O)(OCC)C(Nc1ccc([N+](=O)[O-])cc1)c1ccc(Cl)cc1 (configuration not stated)
73	i	0.66	Cc1nn(-c2ccccc2)c(Cl)c1/C=N/NC(=O)OC(C)(C)C
74	i	0.04	Cc1ccc(C)c2[nH]c(=O)c(CCNC(=O)Cc3cccs3)cc12
75	i	-0.19	COc1cccc2c1Oc1ncccc1N(C(=O)CCC(=O)NCc1ccccc1)C2
76	i	0.13	CN(C(=O)CSc1nc(O)cc(=O)n1C1CCCC1)c1ccccc1
77	i	0.13	Cc1cc(S(=O)(=O)N2CCc3ccccc3C2)ccc1F
78	i	0.3	CCOC(=O)c1sc(NC(=O)Cc2c(F)cccc2Cl)nc1C
79	i	0.31	CC[C@H]1OC(=O)[C@H](C)[C@@H](O[C@H]2C[C@@](C)(OC)[C@@H](O)[C@H](C)O2)[C@H](C)[C@@H](O[C@@H]2O[C@H](C)C[C@H](N(C)C)[C@H]2O)[C@](C)(OC)C[C@@H](C)C(=O)[C@H](C)[C@@H](O)[C@]1(C)O
80	i	-0.14	COc1ccc(N2C(=O)C3C(c4ccc(OC)cc4O)NC(Cc4ccccc4)(C(=O)O)C3C2=O)cc1 (configuration not stated)
81	i	-0.15	COc1ccc(COc2cccc(C=O)c2)cc1
82	i	1.1	CCC(O)c1nc2ccccc2n1CCc1ccccc1 (configuration not stated)
83	i	2.2	O=c1oc(-c2cccs2)nc2sc3c(c12)CCC3
84	i	1.1	COc1ccc(NC(=O)C2CCC(CNC(=O)[C@@H]3Cc4ccccc4CN3)CC2)cc1 (some centres not stated)
85	i	-0.68	CN(CCO)c1cc(NCCCN2CCC(Cc3ccccc3)CC2)c2nonc2c1[N+](=O)[O-]
86	i	-0.11	O=C(c1ccc(-c2ccc([N+](=O)[O-])cc2)o1)N1CCCC(C(F)(F)F)C1 (configuration not stated)
87	i	1.1	Cc1cccc(NC(=O)c2c(O)c3ccccc3n(C)c2=O)c1
88	i	-0.03	Cc1ccc(C)c2sc(NC(=O)c3ccc(N4CCCCC4)c([N+](=O)[O-])c3)nc12
89	i	-0.01	COc1cc([N+](=O)[O-])cc(/C=N/NC(=O)Cn2nc(C)cc2C)c1O
90	i	4.8	CN1CC=C2C(C#N)=C(N)C(C#N)(C#N)C(CCc3ccccc3)C2C1 (configuration not stated)
91	i	-0.69	COCCn1c(SCC(=O)NC(=O)NC(C)(C)C)nc2ccccc21
92	i	0.46	CN(C)CCn1cnc2c(c1=N)C(c1ccccc1)c1ccc3ccccc3c1O2 (configuration not stated)
93	i	0.85	O=C(CSc1cn[nH]n1)Nc1cccc(C(=O)O)c1
94	i	0.02	O=C(O)c1ccc2c(c1)C(c1ccccc1)OC2=O (configuration not stated)
95	i	0.11	O=C(OCC(=O)N1CCCCCC1)c1ccc(Cl)c(S(=O)(=O)N2CCCC2)c1
96	i	1.7	COc1ccc(CCNC(=O)CC2COc3ccccc3O2)cc1OC (configuration not stated)
97	i	0.61	O=S(=O)(Nc1ccc(S(=O)(=O)N2CCCCCC2)cc1)c1cccs1
98	i	-1.1	CCOC(=O)c1c(C)[nH]c2cc(Br)c(OC)cc12
99	i	1.1	Cc1ccc(C(c2nnnn2C(C)(C)C)N2CCC(C)CC2)cc1 (configuration not stated)
100	i	0.9	O=C(N/N=C/c1ccco1)c1cc(-c2cccc(Br)c2)nc2ccccc12
101	i	0.01	Cc1nc(NC(=O)c2c(-c3ccccc3Cl)noc2C)sc1C
102	i	0.63	CCC(=O)Oc1ccc2c(c1)OC1(OC(C)=O)OC(C)CC1=C2C (configuration not stated)
103	i	1.7	Cc1ccc(S(=O)(=O)Nc2cc(Cl)c(O)cc2C)cc1
104	i	0.47	CS(=O)(=O)N(CC(=O)NCc1ccncc1)C1CCCCC1
105	i	-0.55	COc1ccc(S(=O)(=O)NCc2ccccn2)c(Cl)c1Cl
106	i	-1.5	O=C(CNC(=O)c1ccccc1)NC1(C(=O)NC2CCCCC2)CCCCC1
107	i	0.1	COc1ccc(C(=O)Nn2c(SCC(=O)N3CCC(C)CC3)nc3ccccc3c2=O)cc1
108	i	-0.65	Cc1nc2cc(NC(=O)c3ccc([N+](=O)[O-])s3)ccc2s1
109	i	-1.9	COc1ccc(S(=O)(=O)N(CC(=O)NCc2ccco2)c2ccccc2)cc1
110	i	-0.69	Cn1cccc1/C=N/NC(=O)c1cc(-c2cccs2)nc2ccccc12
111	i	-0.14	COc1ccc(C(C[N+](=O)[O-])n2nc(C)cc2C)cc1 (configuration not stated)
112	i	0.43	Cc1ccc(S(=O)(=O)c2c(COC(=O)c3cccc(Cl)c3)c(-c3ccccc3)nn2C)cc1
113	i	0.35	CCOc1cc(/C=C(\C#N)c2nc3ccccc3[nH]2)ccc1OC(C)C(=O)O (configuration not stated)
114	i	0.16	Cc1ccccc1NC(=S)NC(NC(=O)COc1ccccc1)C(Cl)(Cl)Cl (configuration not stated)

# Gathered by group: those above with a nitro group on carbon (12)
entry	KCNQ2 block	KCNQ2 block baseline	Structure
7	i	-2.1	COC(=O)c1ccc(SC2CCCCC2)c([N+](=O)[O-])c1
39	i	0.11	O=C(NN1C(=O)c2ccccc2NC1c1ccc([N+](=O)[O-])o1)c1ccc(Br)cc1 (configuration not stated)
58	i	-0.72	Cc1nc2ccc(C(=O)N/N=C/c3cc([N+](=O)[O-])ccc3O)cc2[nH]1
60	i	-0.68	Cc1ccc(S(=O)(=O)N2CCN(C(=O)c3ccc([N+](=O)[O-])cc3)C2)cc1
69	i	-0.87	Cc1cccc(N2C(=O)c3cccc4c(N5CCCCC5)c([N+](=O)[O-])cc(c34)C2=O)c1C
72	i	0.61	CCOP(=O)(OCC)C(Nc1ccc([N+](=O)[O-])cc1)c1ccc(Cl)cc1 (configuration not stated)
85	i	-0.68	CN(CCO)c1cc(NCCCN2CCC(Cc3ccccc3)CC2)c2nonc2c1[N+](=O)[O-]
86	i	-0.11	O=C(c1ccc(-c2ccc([N+](=O)[O-])cc2)o1)N1CCCC(C(F)(F)F)C1 (configuration not stated)
88	i	-0.03	Cc1ccc(C)c2sc(NC(=O)c3ccc(N4CCCCC4)c([N+](=O)[O-])c3)nc12
89	i	-0.01	COc1cc([N+](=O)[O-])cc(/C=N/NC(=O)Cn2nc(C)cc2C)c1O
108	i	-0.65	Cc1nc2cc(NC(=O)c3ccc([N+](=O)[O-])s3)ccc2s1
111	i	-0.14	COc1ccc(C(C[N+](=O)[O-])n2nc(C)cc2C)cc1 (configuration not stated)
